Six1-Eya2 blk – qHTS Assay for Inhibitors of the Six1/Eya2 Interaction. actives 0.56% (n = 360,000). Homeobox protein SIX1 (Homo sapiens) + Protein phosphatase EYA2 (Homo sapiens), …. activity change, % (no concentration beside the values). AlphaScreen GST-Six1/His-Eya2 binding, biochemical; stronger effect = lower value; control for the full effect not named in the record. AID 651725, 2012; in the data active = activity change below about -65%; inconclusive = about -30% to -65%; inactive = above about -30%; also: % is scaled to controls: 0 for no effect and ±100 for the full control effect; compound concentration not given in the record
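AlphaScreen with GST-Six1 and His-Eya2 (5X mix: 250 nM and 500 nM), glutathione donor and nickel acceptor beads; buffer 50 mM Tris pH 8.0, 300 mM NaCl, 1 mM TCEP; 1 h at 37 C in the dark.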
TRPML1 inh – qHTS for Inhibitors of the Human Mucolipin Transient Receptor Potential 1 (TRPML1) | actives 0.02% (n = 390,000) | AID 624415, 2012 | TRPML1-inducible cells, Ca2+ dye fluorescence, FDSS; stronger effect = lower value; inhibition of EC80 agonist-evoked calcium signal | activity change, negative = inhibition, % (no concentration beside the values); in the data active means activity change below about -50%; inconclusive means about -30% to -50%; inactive means above about -30%;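 also: stimulus is agonist 54-4 at its EC80 concentration; % is scaled to controls: 0 for no effect and ±100 for the full control effect; compound concentration not given in the record; the text of the record puts the active cut at -80%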
Target sequence (Q9GZU1 whole entry, looked up): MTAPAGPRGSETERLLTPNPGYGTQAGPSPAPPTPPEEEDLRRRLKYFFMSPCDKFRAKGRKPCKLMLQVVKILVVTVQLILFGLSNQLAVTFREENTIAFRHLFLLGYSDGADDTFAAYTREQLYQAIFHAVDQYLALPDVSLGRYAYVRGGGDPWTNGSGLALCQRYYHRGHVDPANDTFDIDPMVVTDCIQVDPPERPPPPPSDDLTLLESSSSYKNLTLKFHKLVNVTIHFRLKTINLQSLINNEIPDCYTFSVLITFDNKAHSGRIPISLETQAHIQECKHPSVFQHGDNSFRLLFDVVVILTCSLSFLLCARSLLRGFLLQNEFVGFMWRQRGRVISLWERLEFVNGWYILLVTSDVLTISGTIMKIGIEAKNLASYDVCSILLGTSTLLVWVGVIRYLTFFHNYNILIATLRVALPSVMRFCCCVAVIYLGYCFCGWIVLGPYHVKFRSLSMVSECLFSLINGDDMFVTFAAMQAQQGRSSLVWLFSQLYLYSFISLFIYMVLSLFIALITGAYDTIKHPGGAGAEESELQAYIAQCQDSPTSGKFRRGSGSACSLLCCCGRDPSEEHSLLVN
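Calcium fluorescence in TRPML1-DL cells induced overnight with Tet: a 110 s read after compound pin addition, then a 110 s antagonist read after challenge with 54-4 at 4 uM final (EC80).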
TRPML1 agonist – qHTS for Agonists of the Human Mucolipin Transient Receptor Potential 1 (TRPML1) | Mucolipin-1 (Homo sapiens), Q9GZU1 | TRPML1-expressing cells, Ca2+ dye fluorescence, FDSS; host cell line not named in the record; reference of the full effect not given here | activation, % (concentration not given with the values) | actives 0.12% (n = 410,000); in the data active = activation above about 50%; inconclusive = about 30% to 50%; inactive = below about 30%; also: 0% is about no effect; the text of the record puts the active cut at 80%
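TRPML1-DL cells, Tet-induced overnight (~16 h, 37 degrees C), loaded 45-90 min at room temperature with Ca8 no-wash calcium dye plus quencher. FDSS fluorescence: 10 s baseline, compound pin-transfer, 110 s agonist read, then EC80 54-4 (4uM final) and 110 s antagonist read.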
D2 PAM – Beta-Arrestin HTS for Positive Allosteric Modulators of the Human D2 Dopamine Receptor: Potentiators; D(2) dopamine receptor (Homo sapiens), P14416; DiscoveRx D2 beta-arrestin cells, luminescence, 90 min; 100% = 57 uM dopamine signal; potentiation, % (test concentration not listed); actives 0.23% (n = 360,000); AID 624464, 2012; active = potentiation of 50% or more; inconclusive = 30% to 50%; inactive = 30% or less;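 also: compound concentration not given in the record; tested on top of an EC20 dose of dopamine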
Target sequence (P14416 whole entry, looked up): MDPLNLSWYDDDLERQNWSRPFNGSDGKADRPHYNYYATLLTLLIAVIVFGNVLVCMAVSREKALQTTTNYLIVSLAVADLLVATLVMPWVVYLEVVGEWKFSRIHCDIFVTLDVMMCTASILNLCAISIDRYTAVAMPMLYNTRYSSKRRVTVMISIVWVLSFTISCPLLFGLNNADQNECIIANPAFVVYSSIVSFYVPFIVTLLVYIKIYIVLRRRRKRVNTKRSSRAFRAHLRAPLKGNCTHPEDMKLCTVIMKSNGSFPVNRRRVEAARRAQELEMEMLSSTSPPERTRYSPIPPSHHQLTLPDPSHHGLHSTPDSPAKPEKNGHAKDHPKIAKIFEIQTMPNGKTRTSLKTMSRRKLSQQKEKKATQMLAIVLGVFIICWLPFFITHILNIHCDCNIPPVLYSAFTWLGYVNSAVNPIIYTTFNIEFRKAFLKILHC
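D2 cells co-treated with compound plus 50 nM dopamine (EC20) for 90 min at 37 deg C to detect potentiation. Beta-arrestin recruitment was read as enzyme-fragment luminescence after 1 h at ambient temperature. Full response was set by 57 uM dopamine.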
CtBP-E1A inh – qHTS Assay for Inhibitors of the CtBP/E1A Interaction | AlphaScreen GST-E1A/His-CtBP binding, 1536-well; stronger effect = lower value; control for the full effect not named in the record | activity change, % (concentration not given with the values) | actives 0.49% (n = 340,000) | AID 651724, 2012; in the data active means activity change below about -65%; inconclusive means about -30% to -65%; inactive means above about -30%; also: % is scaled to controls: 0 for no effect and ±100 for the full control effect
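Protein mix (5X: 125 nM each GST-E1A, His-CtBP) was incubated with pinned compound 2 h at 37 deg C in dark, in 50 mM Tris pH 8.0 buffer with 300 mM NaCl. Glutathione donor and nickel acceptor beads followed; AlphaScreen signal read after 1 h.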
TRPV1 potentiator – HTS Assay for Compounds that Act as Potentiators of the Vanilloid Receptor 1. Transient receptor potential cation channel subfamily V member 1 (Homo sapiens), Q8NER1. TRPV1-expressing cells, Fluo-8 calcium influx, capsaicin EC20 potentiation; host cell line not named in the record; control for the full effect not named in the record. potentiation, % at 8.33 µM. actives 0.02% (n = 320,000). AID 540277, 2011; active means potentiation above 80%; inconclusive means 30% to 80%; inactive means below 30%; also: 0% is about no effect
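Cells expressing TRPV1 were dye-loaded with Fluo-8 and read kinetically: 10 s baseline, 3 min after compound (agonist portion), then 2 min after EC20 capsaicin (allosteric enhancer portion). Calcium-bound dye fluorescence at 480/520 nm.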
* hit, by the source's call; ? = inconclusive; . = no result given; & = joins results of further samples.

Sample of the layout (4 entries):
item	mol	TRPV1 potentiator	TRPML1 inh	D2 PAM	TRPML1 agonist	CtBP-E1A inh	Six1-Eya2 blk
1	CCc1nnc(NC(=O)c2cccc(S(=O)(=O)N(C)c3ccc(OC)cc3)c2)s1	-5.5	-4.8	-3.1	3.3	4.4	-1.6
2	CCCCn1c(N)c(N(CCC(C)C)C(=O)COC(=O)c2ccccc2)c(=O)[nH]c1=O	0.6	2.3	-6.5	-0.8	-8.6	2.9
3	CN(C)CCCN(Cc1cc2cc3c(cc2[nH]c1=O)OCO3)C(=S)Nc1ccccc1	1.2	14.6	-7.4	0.0	19.8	-0.1
4	C=CCNC(=S)N(Cc1ccccc1)Cc1ccc(F)cc1	-15.8	-0.6	-5.8	0.1	18.8	0.2

Results (from the top)
item	mol	TRPV1 potentiator	TRPML1 inh	D2 PAM	TRPML1 agonist	CtBP-E1A inh	Six1-Eya2 blk
1	CCc1nnc(NC(=O)c2cccc(S(=O)(=O)N(C)c3ccc(OC)cc3)c2)s1	-5.5	-4.8	-3.1	3.3	4.4	-1.6
2	CCCCn1c(N)c(N(CCC(C)C)C(=O)COC(=O)c2ccccc2)c(=O)[nH]c1=O	0.6	2.3	-6.5	-0.8	-8.6	2.9
3	CN(C)CCCN(Cc1cc2cc3c(cc2[nH]c1=O)OCO3)C(=S)Nc1ccccc1	1.2	14.6	-7.4	0.0	19.8	-0.1
4	C=CCNC(=S)N(Cc1ccccc1)Cc1ccc(F)cc1	-15.8	-0.6	-5.8	0.1	18.8	0.2
5	Cc1ccccc1C(=O)N1CCC(C(=O)Nc2cc(C(F)(F)F)ccc2N2CCCC2)CC1	2.1	22.0	-21.1	0.6	-2.9	0.3
6	O=C(CSc1nnc(COc2cccc3ccccc23)o1)N1CCN(C(=O)c2ccco2)CC1	6.0	5.3	-9.0	0.2	1.8	0.9
7	CCSc1nnc(N(CCC#N)CCC#N)s1	?	-4.5	-3.0	-0.2	2.3	1.5
8	CC(=O)N1CCN(C(=S)NC(=O)c2c(-c3ccccc3Cl)noc2C)CC1	3.6	-1.2	-4.1	0.3	4.4	2.6
9	COc1ccc(CN(C)CC(=O)Nc2ccccc2C(F)(F)F)c(OC)c1	12.4	-3.4	5.3	-0.3	6.2	-0.3
10	CCNC(=S)Nc1ccc2c(c1)oc1ccccc12	.	-7.6	-13.7	-0.1	.	0.0
11	OC1(C2(O)CC(c3ccccc3)ON2)CCCCC1 (stereo not given)	-16.1	9.6	-13.9	-0.7	4.0	-2.4
12	Cc1c(Cl)cccc1NC(=O)CSc1nc(=O)n(CCCN2CCOCC2)c2c1CCC2	6.4	-2.2	-8.8	0.9	-4.6	0.9
13	CC(C)N(C(=O)[C@H]1CC(CC(=O)NCCC2=CCCCC2)C(=O)N2CCc3c([nH]c4ccccc34)[C@]12C)C(C)C (stereo not given in full)	.	-8.4	.	-0.3	-1.1	-2.2
14	O=C(/C=C\c1ccco1)Nc1cc([N+](=O)[O-])ccc1F	6.0	-13.7	-9.5	-0.6	-1.1	11.0
15	O=C(Nc1cccc(C(=O)N2CCCCC2)c1)c1ccccc1Br	0.4	3.9	-29.3	0.6	2.1	22.7
16	Cc1ccc(NC(=O)c2ccc(S(=O)(=O)NCc3ccco3)cc2)nc1	-18.5	29.8	-4.4	0.6	-2.9	5.1
17	Cc1cc(OCC(=O)Nc2nnc(C3CC3)s2)ccc1C(C)C	14.0	-1.5	-0.8	1.7	2.5	5.2
18	CC(C)CNC(=O)/C=C/C(=O)O	3.6&-13.0	23.1	-5.7	-1.6	.	-21.6
19	Cc1ccc(-c2c[n+](CC(=O)OCc3ccccc3)c3n2CCC3)cc1	2.3	12.5	-21.9	-0.4	-3.0	-4.0
20	O=C(Nc1ccc2c(c1)OCO2)c1cnn2cccnc12	7.5	36.5	-4.7	1.3	-22.2	-1.7
21	COc1ccc(-c2csc(NC(=O)c3ccco3)n2)cc1	-0.7	11.4	-8.7	1.2	6.0	-5.3
22	CC(=O)c1c(C(C)=O)c(C)n(-c2ccc(O)cc2)c1C	-0.2	-8.8	-14.4	0.5	0.8	-4.8
23	N#Cc1nc(COc2ccc(-c3ccccc3)cc2)oc1NCCCN1CCOCC1	-4.1	29.5	-5.8	1.8	-17.6	-25.3
24	O=C(Nc1ccc(Oc2ccc(Cl)cc2)cc1)c1ncn[nH]1	1.5	-17.3	9.6	-0.8	-21.6	-9.7

A second format for some results above:
13	CC(C)N(C(=O)[C@H]1CC(CC(=O)NCCC2=CCCCC2)C(=O)N2CCc3c([nH]c4ccccc34)[C@]12C)C(C)C (stereo not given in full)
16	Cc1ccc(NC(=O)c2ccc(S(=O)(=O)NCc3ccco3)cc2)nc1
Screen / compound no.	13	16
TRPV1 potentiator	.	-18.5
TRPML1 inh	-8.4	29.8
D2 PAM	.	-4.4
TRPML1 agonist	-0.3	0.6
CtBP-E1A inh	-1.1	-2.9
Six1-Eya2 blk	-2.2	5.1

More compounds follow:
item	mol	TRPV1 potentiator	TRPML1 inh	D2 PAM	TRPML1 agonist	CtBP-E1A inh	Six1-Eya2 blk
25	Cc1ccc(Cl)cc1N1CCN(C(=O)Cn2ccc3ccccc3c2=O)CC1	-3.6	-4.8	-5.8	0.5	-0.9	0.0
26	O=C(/C=C/NNC(=O)c1ccccc1)c1ccc([N+](=O)[O-])cc1	-12.7	-3.4	-5.4	-0.3	15.9	?
27	COc1ccc(OC)c(C(=O)c2coc3ccc(OC)cc23)c1	17.0	5.1	-5.0	2.0	2.2	-25.1
28	O=C1c2ccccc2NC(c2cccc(O)c2)N1Cc1ccco1 (stereo not given)	7.7	.	4.4	-0.6	2.2	2.2
29	CC(C)(C)c1ccc(-n2nc(C#N)c(Cl)cc2=O)cc1	-7.5	0.8	-0.8	1.5	5.4	-10.2
30	COc1cc(C(=O)NC2CC(C)(C)NC(C)(C)C2)cc(OC)c1OC	10.9	-1.0	-9.4	0.0	1.3	2.1
31	COc1ccc(N2CCN(C(=O)c3ccc(Cn4nc(C)c([N+](=O)[O-])c4C)o3)CC2)cc1	-5.1	-12.5	-9.1	1.1	10.8	-9.7
32	O=[N+]([O-])c1ccc(N2CCN(c3ccccc3)CC2)nc1	0.2	-7.4	1.6	0.1	-25.4	-5.8
33	O=C(CSc1nc2ccccc2c(=O)n1CCCC(=O)N1CCCC1)NCc1ccco1	.	-5.2	4.3	0.1	-1.5	-1.4
34	CCC(=O)N1CCC(C)(C(=O)Nc2ccc3c(c2)OCO3)C1 (stereo not given)	.	.	-1.6	-0.6	-5.1	8.5
35	COc1ccc(CCNC(=O)Cc2nn(C)c(=O)c3ccccc23)cc1OC	-9.6	-19.0	13.0	0.1	0.0	22.7
36	CCCCN1c2cc(C)c(O)cc2C(C(=O)OCC)C1C (stereo not given)	1.0	-11.6	8.1	1.6	2.7	-1.6
37	CCCCc1nnc(NC(=O)c2ccc(S(=O)(=O)N3CCOCC3)cc2)s1	-5.4	-9.0	-9.0	1.0	7.2	0.7
38	COc1cc2c(cc1OC)CN(C(=O)c1cc(COc3ccccc3SC)on1)CC2	.	7.8	-24.1	0.9	21.7	11.1
39	CCOC(=O)N1CCN(C(=O)C2CC(c3ccc(F)cc3)=NO2)CC1 (stereo not given)	0.0	8.1	-2.6	0.0	1.1	7.9
40	Cc1ccc(S(=O)(=O)N2CCOC23CCN(C(=O)C(=O)NCCC(C)C)CC3)cc1	-6.0	-1.8	-1.8	-0.6	0.7	8.7
41	CCOc1ccc2nc(NC(=O)CN3CCN(C)CC3)sc2c1	-2.9	5.2	-2.4	-0.2	-3.7	3.1
42	COc1ccc(NC(=O)Nc2cccc3c2O[C@H](CN(C)C(=O)NC(C)C)[C@@H](C)CN([C@H](C)CO)C3=O)cc1	.	30.4	-4.8	0.4	5.6	0.6
43	CCOc1ncccc1C(=O)N1CCN(S(=O)(=O)c2ccc3ccccc3c2)CC1	3.5	-5.7	-3.5	-0.4	.	0.6
44	Cc1ccc(SCc2cc(=O)n3[nH]c(C)nc3n2)cc1	3.1	2.0	?	-0.4	-4.9	12.5
45	CN(C)c1ccc(/C=N/OC(=O)Nc2ccccc2)cc1	-4.0	-4.9	1.4	1.1	-9.8	-9.2
46	COc1ccccc1CC(=O)Nc1ccon1	2.9	2.7	-30.5	-0.8	.	7.1
47	COc1ccc(CNC(=O)CC2C(=O)NCCN2C2Cc3ccccc3C2)cc1 (stereo not given)	-5.9	-2.9	-24.3	-0.2	5.8	3.6
48	O=C(Nc1nc(-c2cccs2)c(-c2cccs2)s1)C1(c2ccccc2)CC1	0.7	0.1	-19.7	-1.1	-2.3	13.1
49	O=C(NCc1ccc(Cl)cc1)C1CCCN1C(=O)Nc1ccccc1 (stereo not given)	2.9	-13.9	-7.7	-0.1	6.7	-17.8
50	COc1cc(C)nc(-c2csc(C)n2)n1	?	4.1	-14.0	-0.4	.	-0.2
51	O=C(NC(=S)Nc1cccc2ncccc12)c1cccs1	-4.0	20.7	-14.9	2.7	4.3	-2.2
52	O=C1/C(=C/c2cccc(Br)c2)SC(=S)N1CCC(=O)N(CCO)c1ccccc1	8.5	4.2	0.1	0.0	-2.6	-9.2
53	Cc1cc(C)cc(NC(=O)c2ccc(Cn3nc(C)c(Cl)c3C)o2)c1	11.9	15.3	-28.5	1.2	1.6	-0.7
54	COCCn1nnnc1C(c1ccc2ncccc2c1)N1CCN(c2ccccc2F)CC1 (stereo not given)	-3.4	28.3	-16.4	1.3	7.6	-0.3
55	Cc1noc(C)c1CSCC(=O)Nc1cc(Cl)ccc1N1CCCCC1	11.0	65.7	-6.4	2.9	-4.4	9.9
56	Nc1c(C(=O)OCC2CCCO2)c2nc3ccccc3nc2n1C1CCCC1 (stereo not given)	-26.3	7.8	-20.1	0.1	12.9	15.1
57	COc1ccc(Br)cc1CNc1ccc(S(N)(=O)=O)cc1	-1.6	-19.9	-8.6	1.4	7.3	4.2
58	O=C(CN(c1cccc([N+](=O)[O-])c1)S(=O)(=O)c1ccccc1)N(Cc1ccccc1)Cc1ccccc1	2.8	45.7	0.7	-0.1	-8.0	-18.0
59	COc1cccc(S(=O)(=O)N(C)C[C@@H]2OCc3cnnn3CCCC(=O)N([C@@H](C)CO)C[C@@H]2C)c1	.	-5.9	-0.9	-0.4	0.0	18.0
60	COc1ccc(NC(=O)Nc2ccc3c(c2)C(=O)N([C@H](C)CO)C[C@H](C)[C@@H](CN(C)C(=O)Nc2ccc(C(F)(F)F)cc2)O3)cc1	.	4.8	6.3	0.1	-24.1	-18.8
61	Cc1ccc2c(CC(=O)NCC3COc4ccccc4O3)coc2c1 (stereo not given)	10.5	10.3	-0.8	0.8	2.1	-9.9
62	Cc1ccccc1NC(=O)c1sc(Cl)nc1-c1ccccc1	20.0	-9.5	7.7	0.7	24.6	0.0
63	CCNC(=S)NNC(=O)c1cccs1	3.4	-16.3	-11.7	0.0	3.1	6.8
